Screens: PubChem, Fisher Drug Discovery Resource Center
NPYLR7 agonist: agonists of mosquito NPYLR7 receptor, primary screen, cell-based, Aedes aegypti, calcium fluorescence, mosquito biting behavior. activation, % at 10 µM. Aedes aegypti neuropeptide Y-like receptor 7 (NPYLR7). hit rate 0.15% among 270,000. AID 1259423, 2018. HEK293T NPYLR7/Galpha15, GCaMP6s calcium fluorescence; in the data active = activation above about 40%;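 note: 0% = vehicle and 100% = reference agonist at the receptor; some compounds past the cut are filed as inactive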
NPYLR7 agonist max-min: second read-out of NPYLR7 agonist, no call of its own (marks repeat the call); activation, %; measured here: Max-Min RFU normalised activation; some inactives read as strong as hits;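 span of the calcium signal over five minutes; 0% = vehicle and 100% = native peptide agonist; compound fluorescence can raise it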
* hit, by the source's call; & = joins results of further samples.

1: O=C(NC(c1ccccc1)c1ccsc1)C1CCN(Cc2ccccc2)CC1 (centres undefined)
2: Cn1nnc2c(N3CCN(c4ccccc4)CC3)ncnc21
3: COc1cc(OC)c(CN2CCCn3cccc3C2c2cccc([N+](=O)[O-])c2)c(OC)c1 (centres undefined)
4: COC(=O)CSc1nnnn1-c1cc(C)ccc1OC
5: CN(CC(=O)NC(N)=O)CC1CCCCC1
6: C=CCn1c(N)cc(=O)nc1SCC(=O)NC(CSCc1ccccc1)C(=O)OC (centres undefined)
7: Clc1cc(Br)ccc1OCCCCNCCN1CCOCC1
8: COc1ccc(C)cc1S(=O)(=O)NCCNc1cc(-n2cccn2)ncn1

Assay by compound | 1 | 2 | 3 | 4 | 5 | 6 | 7 | 8
NPYLR7 agonist max-min | 5 | 4 | 2 | 0 | -2 | 26 | 5 | -17
NPYLR7 agonist | 10 | 11 | -1 | 6 | -2 | 3 | 14 | -11

9: COCCCN(CC(=O)N1CCc2sccc2C1COc1cccc(F)c1)C(=O)CC(C)C (centres undefined)
10: Cc1ccc(F)cc1N1C(=O)C2CC=CCC2C1=O (centres undefined)
11: CCn1c(C2CCN(C(=O)c3ccc(-c4ncc[nH]4)s3)CC2)n[nH]c1=O
12: CCOC(=O)c1csc(NC(=O)c2cccc(OC)c2)n1
13: CN(C(=O)Nc1ccc(F)c(C(N)=O)c1)C1CCc2ccccc2C1 (centres undefined)
14: CC1CCc2nc(NS(=O)(=O)c3cccnc3)sc2C1 (centres undefined)
15: COCCN(Cc1c(-c2ccccc2)noc1N1CCOCC1)CC(O)COCc1ccco1 (centres undefined)
16: CCOC(=O)c1cc(-c2ccc(N3CCN(C(=O)c4ccc(F)c(F)c4F)CC3)cc2)n(-c2ccc(F)cc2)n1

Assay by compound | 9 | 10 | 11 | 12 | 13 | 14 | 15 | 16
NPYLR7 agonist max-min | 3 | -15 | 5 | -12 | -8 | -4 | -2 | -3
NPYLR7 agonist | -3 | -13 | 5 | -11 | -7 | -5 | -3 | 0

17: c1ccc(OCCn2c(C3CCCO3)nc3ccccc32)cc1 (centres undefined)
18: Cc1cccc(-c2nnc(NC(=O)C3CCCN3)s2)c1 (centres undefined)
19: CC(=O)c1cc(Cl)cc(-c2ccc(C(C)N3CCOCC3)cc2)c1O (centres undefined)
20: Cc1ccc(Cn2c(-c3nnc(C)o3)cc3ccccc32)cc1
21: Cc1cccc(C)c1N1C(=O)c2ncccc2C1CC(=O)NCc1ccc(C(=O)O)cc1 (centres undefined)
22: Fc1ccc(-c2ccc(SCCN3CCCCC3)nn2)cc1
23: Cc1nc(Cl)sc1C(=O)N1CCN(C(C#N)C(C)C)CC1 (centres undefined)
24: O=C(c1cccs1)N1N=C(c2ccc3ccccc3c2)CC1c1ccccc1 (centres undefined)

Assay by compound | 17 | 18 | 19 | 20 | 21 | 22 | 23 | 24
NPYLR7 agonist max-min | 1 | -17 | -6 | -1 | 3 | -1 | 1 | -15
NPYLR7 agonist | 4 | -5 | -3 | -9 | 2 | 1 | 0 | -8

25: Cc1cccc(-n2[nH]c(-c3ccccc3)cc2=O)c1C
26: CC(C)(C)c1nnc(NC(=O)c2cc(C(F)(F)F)cc(C(F)(F)F)c2)s1
27: CC(C)NC(=O)NC(=O)CSc1nnc(C2CC2)n1C1CC1
28: Cc1c(Cl)cccc1N1CN(C(=O)CN(Cc2ccccc2)C(=O)c2cccc(Br)c2)CC1=O
29: OCCC1CN(Cc2ccc3nsnc3c2)CCN1Cc1ccsc1 (centres undefined)
30: CC(NC(=O)NCCN(C)C(=O)OC(C)(C)C)c1cccnc1 (centres undefined)
31: CC(C)(C)Nc1c(-c2cccc(O)c2)nc2ccccn12
32: COc1cccc(C(=O)Nc2ccc(-c3nc4ccccc4o3)c(O)c2)c1

Assay by compound | 25 | 26 | 27 | 28 | 29 | 30 | 31 | 32
NPYLR7 agonist max-min | 3 | 6 | 10 | 18 | 6 | 0 | 15 | -10
NPYLR7 agonist | 4 | 10 | 10 | 19 | 19 | 1 | 8 | -7

33: Cc1nnc(-c2ccccc2/C=C/c2ccccc2)o1
34: O=C(Nc1ccc2c(c1)CN(C(=O)c1cc3ccccc3[nH]1)CC2)c1ccncc1
35: Cc1ccc(C2CSCCN2C(=O)Nc2ccccc2)cc1 (centres undefined)
36: COCc1nc(N2CCN(C(=O)COc3ccccc3)CC2)c2c3c(sc2n1)CCCC3
37: CC(C)c1ccc(Oc2cnn(C)c(=O)c2Nc2ccc(C(=O)N3CCN(C)CC3)cc2)cc1
38: Cc1ccc(N(CCCN2C(=O)c3cccc4cccc(c34)C2=O)C(=O)c2ccc([N+](=O)[O-])cc2)c(C)c1
39: Cc1occc1C(=O)Nc1ccc(C(=O)N(Cc2ccncc2)C2CC2)cc1
40: CC(C)(C)C(=O)Nc1c2c(nn1C(C)(C)C)CSC2

Assay by compound | 33 | 34 | 35 | 36 | 37 | 38 | 39 | 40
NPYLR7 agonist max-min | 2 | 11 | 6 | 5 | 18 | -19 | -13 | 4
NPYLR7 agonist | -2 | 12 | 9 | -7 | 9 | -16 | -7 | 6

41: CN(C)c1cc(C(=O)O)cc(Cl)n1
42: O=C(c1cccs1)N1N=C(c2ccccc2O)CC1c1ccco1 (centres undefined)
43: Cc1nc(N)sc1N=Nc1cc(C(F)(F)F)ccc1Cl
44: CC(=O)Nc1cc(C(=O)NCC2CCCN(C(C)C)C2)cc2ncn(CCc3ccccn3)c12 (centres undefined)
45: COc1ccc(C(C)=O)cc1CN1CCCc2cc(F)cc(F)c21
46: CC(C)(O)C#Cc1ccc([C@@H]2C[C@H]3CN(Cc4cccc(Cl)c4)C(=O)[C@]34CCCN24)cc1
47: COC(=O)c1cc(S(=O)(=O)Nc2cccc(Cl)c2)ccc1O
48: O=C(COc1ccc2c(c1)OCO2)Nc1cccc(C(F)(F)F)c1

Assay by compound | 41 | 42 | 43 | 44 | 45 | 46 | 47 | 48
NPYLR7 agonist max-min | 2 | -2 | -1 | 7 | 5 | 11 | 3 | 4
NPYLR7 agonist | 1 | -2 | 3 | 19 | 8 | 6 | 9 | 5

Some of the entries so far, field by field:
41) CN(C)c1cc(C(=O)O)cc(Cl)n1
  NPYLR7 agonist max-min = 2
  NPYLR7 agonist = 1
42) O=C(c1cccs1)N1N=C(c2ccccc2O)CC1c1ccco1 (centres undefined)
  NPYLR7 agonist max-min = -2
  NPYLR7 agonist = -2

Additional compounds.
49: Fc1ccc(C2CNCC(c3ccccc3)O2)cc1 (centres undefined)
50: COC(=O)[C@@H]1C[C@@H](NC(=O)CCn2nnc3ccccc32)CN1C
51: COc1ccc(-n2c(Cc3ccccc3)nnc2SCCCC(=O)N2CCN(C(=O)c3ccccc3Br)C(C)C2)cc1 (centres undefined)
52: CC1CN(c2ccc(CNC(=O)C3(C#N)CCCC3)cc2F)CC(C)O1 (centres undefined)
53: CN(CC(=O)O)C1=NS(=O)(=O)c2ccccc21
54: CCOc1ccc(CN(Cc2nc(C(=O)N3CCOCC3)co2)C(C)c2ccccc2)cc1 (centres undefined)
55: CCc1nc(CN(C)CCC(=O)NC2CCCCCC2)no1
56: CC1(C(=O)NS(=O)(=O)c2ccc(C#N)cc2)CCN1C(=O)C1(c2ccccc2)CCCC1 (centres undefined)

Assay by compound | 49 | 50 | 51 | 52 | 53 | 54 | 55 | 56
NPYLR7 agonist max-min | 7&5 | -5 | 4 | -2 | 12 | 14 | -10 | 3
NPYLR7 agonist | 10&7 | -4 | 5 | -1 | 7 | 17 | -4 | 2

57: COc1cc(Cl)c(C(=O)N2CCOC(COc3ccc(F)cc3)C2)cc1OC (centres undefined)
58: CCc1nc2n(n1)C(=O)C(C(c1ccco1)N1CCc3ccccc3C1)S2 (centres undefined)
59: Cn1ncc(Cl)c(Oc2ccccc2)c1=O
60: C=CCCC(O)CN(C)CC1CC(c2ccc(F)cc2)=NO1 (centres undefined)
61: Cc1cc(C(=O)N2CCOc3ccc(CN4CCC(OCc5ccccc5)CC4)cc3C2)c(C)o1
62: O=C(C1CCCO1)N1CCC(NCCN2CCc3ccccc32)CC1 (centres undefined)
63: CCOC(=O)C1(C)CCN1C(=O)c1csnn1 (centres undefined)
64: CC(=O)N1CCCCCC1C1CCN(CCS(=O)(=O)c2ccccc2)CC1 (centres undefined)

Assay by compound | 57 | 58 | 59 | 60 | 61 | 62 | 63 | 64
NPYLR7 agonist max-min | 27 | -10 | 4 | 2 | -4 | 14 | -6 | 3
NPYLR7 agonist | 22 | -5 | 3 | 0 | 5 | 14 | -1 | 4

65: Cc1ccccc1-c1nnc(SCc2coc(-c3cccs3)n2)n1C
66: O=S1(=O)CCC(CNC2CCC3(CCNCC3)CC2)C1 (centres undefined)
67: O=C(CNC(=O)c1ccccc1Br)N=Nc1c(O)[nH]c2ccccc12
68: Cc1ccc(C(=O)N(Cc2csc(COc3cc(Cl)ccc3Cl)n2)C(C)C)cc1
69: Cc1ccccc1CN(Cc1cccnc1)C(=O)c1ccn(C)c(=O)c1
70: COc1ccc2cc(C3CN(CC(=O)NC4CC4)CCO3)ccc2c1 (centres undefined)
71: COc1ccc(CCN(C)C(=O)CCc2nnc(-c3ccccc3)o2)cc1OC
72: CCOC(=O)CNC(=O)CSc1ccc2nnc(-c3cccnc3)n2n1

Assay by compound | 65 | 66 | 67 | 68 | 69 | 70 | 71 | 72
NPYLR7 agonist max-min | -3 | -6 | -11 | -2 | 5 | -3 | 0 | 1
NPYLR7 agonist | -3 | -3 | -3 | -4 | 8 | 4 | 2 | 2

73: O=C1c2ccccc2C(=O)N1CCNCCN1C(=O)c2ccccc2C1=O
74: CC(C)(C)c1nc2cc(NC3CCCCNC3=O)ccc2o1 (centres undefined)
75: Cc1ccc(N2C(=O)CSC2c2ccc3c(c2)OCO3)cc1 (centres undefined)
76: Cc1ccc(C(=O)N2CCCC(O)(CO)CC2)c(F)c1 (centres undefined)
77: COc1cc(F)c(-c2nccn2CCCN2CCOCC2)cc1OC
78: COc1ccc(OC)c2sc(N(CCCN(C)C)C(=O)c3cccc(S(C)(=O)=O)c3)nc12
79: CC#CC(=O)N1CCCC(Cc2ccccc2C)(C(=O)OCC)C1 (centres undefined)
80: CCOCC1CCN(S(=O)(=O)c2cccc3ncccc23)C1 (centres undefined)

Assay by compound | 73 | 74 | 75 | 76 | 77 | 78 | 79 | 80
NPYLR7 agonist max-min | -2 | -2&2 | -5 | 2 | -7 | -9 | -14 | -4
NPYLR7 agonist | 0 | -4&6 | -3 | 3 | -4 | -5 | -10 | -4

81: O=C(COC(=O)c1ccc(COc2ccccc2)o1)NCC(F)(F)F
82: COc1ccccc1C1CNC(=O)c2nc(CCCN3CCCC3)[nH]c2C1 (centres undefined)
83: Cc1ccccc1C(=O)N[C@@H]1CCCCC1NC(=O)C1CCCN(C(=O)c2ccc3c(c2)OCO3)C1 (some centres undefined)
84: CCOC(=O)c1ccc2c(c1)nc(SCc1ccccc1OC)n2Cc1ccc(C(F)(F)F)cc1
85: Cc1ccccc1C(=O)N1CCC(C(=O)NN2C(=O)NC3(CCCCC3)C2=O)CC1
86: COc1cccc2cc(C(N)=O)c(=NCc3cccc(Cl)c3)oc12
87: O=C(NCc1ccc(Cl)cc1)c1cncn1-c1ccc(-c2cc(C(F)(F)F)cc(C(F)(F)F)c2)cc1
88: CCOC(=O)C1CCCN(C(=O)c2cccc(CSc3nc(COC)cc(N4CCN(c5ccc(OC)cc5)CC4)n3)c2)C1 (centres undefined)

Assay by compound | 81 | 82 | 83 | 84 | 85 | 86 | 87 | 88
NPYLR7 agonist max-min | 3 | -15 | 9 | 10 | -3 | -10 | 6 | 13
NPYLR7 agonist | 6 | -8 | 0 | 15 | -1 | -6 | 5 | 11

89: Fc1cccc(-c2nc3ccc(Br)cn3c2NC2CCCCC2)c1
90: CN(CCc1ccccc1)c1ccc2c(C3CC3)noc2n1
91: CC(C)=C1C2C=CC1C1C(=O)N(c3ccc(C)cc3[N+](=O)[O-])C(=O)C21 (centres undefined)
92: O=C(NCc1ccccc1C(F)(F)F)C1CC12CCN(C(=O)C13CC4CC(CC(C4)C1)C3)CC2 (centres undefined)
93: CCOc1ccc(Nc2nc(N)c([N+](=O)[O-])c(N3CCCC3)n2)cc1
94: O=C(CC(c1cccc([N+](=O)[O-])c1)c1c[nH]c2ccccc12)NC1CC1 (centres undefined)
95: OC(c1ccccn1)C1CCN(Cc2nc(C(c3ccccc3)c3ccccc3)no2)CC1 (centres undefined)
96: CC1CN(Cc2ccccc2)CCCN1C(=O)c1ccc[nH]c1=O (centres undefined)

Assay by compound | 89 | 90 | 91 | 92 | 93 | 94 | 95 | 96
NPYLR7 agonist max-min | -3 | 1 | 1 | 4 | -4 | 48* | -3 | -1
NPYLR7 agonist | -8 | 4 | 1 | 5 | -1 | 41* | 0 | -1

97: O=C(Nc1nc2c(s1)CCCCCC2)C1CC1c1cccnc1 (centres undefined)
98: CCCc1c(C)[nH]n(-c2nc3ccccc3[nH]2)c1=O
99: COc1ccc(CN(C)C(=O)Nc2n[nH]c(Cc3ccccc3)n2)cc1
100: COc1cccc(-c2nc(OC)nn2-c2cccc(NC(=O)Nc3ccc(F)cc3F)c2)c1

Assay by compound | 97 | 98 | 99 | 100
NPYLR7 agonist max-min | 5 | -20 | -10 | 21
NPYLR7 agonist | 6 | -15 | -4 | 10

Some of these compounds in order of count of non-hydrogen atoms, low to high.
98: CCCc1c(C)[nH]n(-c2nc3ccccc3[nH]2)c1=O
96: CC1CN(Cc2ccccc2)CCCN1C(=O)c1ccc[nH]c1=O (centres undefined)
99: COc1ccc(CN(C)C(=O)Nc2n[nH]c(Cc3ccccc3)n2)cc1

Assay by compound | 98 | 96 | 99
NPYLR7 agonist max-min | -20 | -1 | -10
NPYLR7 agonist | -15 | -1 | -4

Only part of the results is shown, so the mix of outcomes need not match the whole.
